ClpP mod: qHTS Assay for Activators of ClpP; ATP-dependent Clp protease proteolytic subunit (Bacillus subtilis (strain 168)), P80244; purified B. subtilis ClpP, FRET peptide cleavage, 20 min; Potency, µM (titrated, usually from 57.5 µM), for the others: top-dose activity change, negative = active; hit rate 1.9% among 340,000; active = well fitted falling curve with a large enough effect; inconclusive = small, poorly fitted or top-dose-only effect; inactive = no such curve, though single readings can be large or run the other way; also: the source files actives as falling curves though it sought activators and does not explain the sign; nearly all actives have a fitted effect of over 65% in size; many hits overshoot -100%
Target sequence (P80244 whole entry, looked up): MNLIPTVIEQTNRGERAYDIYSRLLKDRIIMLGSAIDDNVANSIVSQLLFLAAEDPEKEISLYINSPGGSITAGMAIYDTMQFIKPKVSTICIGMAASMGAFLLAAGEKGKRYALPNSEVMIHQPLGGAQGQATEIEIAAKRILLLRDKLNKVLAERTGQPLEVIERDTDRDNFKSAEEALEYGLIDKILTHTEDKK
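FRET quenching reversal measured ClpP activation: 10 microg/mL B. subtilis ClpP at pH 8 with the FRET-FV decapeptide, read at 430 nm after 320 nm excitation. The 20-min minus 0-min signal was scaled between DMSO/no-enzyme wells and ADEP (5.8 microM final).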
An asterisk follows results filed as active; u = inconclusive. Potency is read from the fitted curve at half-maximal effect.

structure | ClpP mod
CCOC(=O)c1ccccc1NC(=O)N1CCCN(S(=O)(=O)c2ccc3c(ccn3CC)c2)CC1 | 3.9%
Cc1cc(C)cc(NC(=O)C(CC(C)C)NC(=O)C2CCCCC2)c1 (stereo unspecified) | 1.9%
CCOc1ccccc1C(=O)Nc1ccc(S(=O)(=O)Nc2nc(C)cc(C)n2)cc1 | -1.5%
N#Cc1ccccc1Cn1c(SCC(=O)Nc2ccc(F)cc2)nc2ccccc21 | 0.6%
CCOc1ccc2nc(N(Cc3cccnc3)C(=O)C3CCCCC3)sc2c1 | -0.4%
CCC(=O)N1CCc2cc(CNS(=O)(=O)c3cccs3)ccc21 | -3.9%
Cc1ccc(S(=O)(=O)c2nc(S(=O)(=O)c3ccc(C)cc3)c(NC(C)C)s2)cc1 | -2.1%
CCOc1ccc(NC(=O)CC2C(=O)N(c3ccccc3)C(=O)N2CCc2ccc(OC)cc2)cc1 (stereo unspecified) | -1.3%
CCc1cccc(CC)c1NC(=O)Cn1c(=O)c(-c2cc(C)ccc2NC(C)=O)nc2ccccc21 | -0.8%
CCOC(=O)c1ccccc1NC(=O)C(=O)Nc1ccc2nc3n(c(=O)c2c1)CCCCC3 | 2.4%
COc1cc2c(NC3CCN(C)CC3)nc(N3CCCN(C)CC3)nc2cc1OCCCN(C)C | 4.3%
COc1cccc(CNC(=O)c2cc3c(s2)-c2ccccc2OC3)c1 | 4.2%

2 entries picked at random from those above, as already listed:
structure | ClpP mod
COc1cc2c(NC3CCN(C)CC3)nc(N3CCCN(C)CC3)nc2cc1OCCCN(C)C | 4.3%
CCOC(=O)c1ccccc1NC(=O)N1CCCN(S(=O)(=O)c2ccc3c(ccn3CC)c2)CC1 | 3.9%

Other entries follow.
structure | ClpP mod
CCOc1ccc(NC(=O)Cn2nc(Cc3cccnc3)c3ccccc3c2=O)cc1 | 4.5%
COc1cccc(-c2noc(COc3cccc(C)c3C)n2)c1 | -6.2%
CCC(=O)N1c2ccccc2CC1C(=O)NCc1ccc(N(C)C)cc1 (stereo unspecified) | -1.1%
CCOCCCNC(=O)C(c1ccc(Cl)cc1)N(Cc1ccc2c(c1)OCO2)C(=O)c1ccccc1O (stereo unspecified) | -1.4%
CCOc1ccc(NC(=O)C(=O)NCC(c2cccnc2)N2CCc3ccccc32)cc1 (stereo unspecified) | 0.6%
CCCOc1ccc(C2c3c(oc4ccc(F)cc4c3=O)C(=O)N2CCc2ccc(OC)cc2)cc1 (stereo unspecified) | -1.8%
COc1ccc(C2C(C(=O)Nc3ccc(C)cc3C)=C(C)Nc3nc4ccccc4n32)c(OC)c1 (stereo unspecified) | -3.5%
CC1CCC(C(=O)NC(C(=O)OCC(=O)c2ccccc2)C(C)C)CC1 (stereo unspecified) | 0.2%
Cc1cc(-c2ccccc2)n2nc(-c3ccccc3)cc2n1 | -12%
O=C(c1cc(Br)ccc1O)N(Cc1ccco1)Cc1cccs1 | u
COc1cccc(NC(=O)c2oc3ccccc3c2NC(=O)c2ccc(OC(C)C)cc2)c1 | 3.7%
CC1=C(C(=O)Nc2ccc(C)cc2C)C(c2ccc(C(=O)O)cc2)n2nc(SCc3ccccc3)nc2N1 (stereo unspecified) | -3.3%
COc1cc(C(=O)Nc2ccc3oc(-c4ccc(C)c(Br)c4)nc3c2)cc(OC)c1OC | u
Cc1ccc(C)c(S(=O)(=O)c2nnn3c2nc(Nc2ccc(F)c(Cl)c2)c2sccc23)c1 | u
CCOc1ccccc1CNC(=O)CCc1c(C)nn(-c2ccc(N3CCOCC3)nn2)c1C | -6.4%
COc1cccc(CNC(=O)CCCCCn2c(=O)[nH]c3cc(OC)c(OC)cc3c2=O)c1 | 4.5%
COc1ccc(Cl)cc1NC(=O)CCn1c(=O)c2cccn2c2ccccc21 | 1.1%
CCOc1ccc(CNC(=O)Cn2ccc3cc(S(=O)(=O)N4CCCCC4)ccc32)cc1 | -6.4%
Cc1ccc2c(c1)-c1nc(-c3ccccc3)cc(-c3ccccc3)c1CO2 | -19%
Cc1nnc(SCc2ccccc2)c2cc3sccc3n12 | -6.7%
CCOC(=O)C1CCCN(C(=O)c2ccc3c(c2)sc2nc(-c4ccc(CC)cc4)cn23)C1 (stereo unspecified) | u
O=C(NCCc1ccccc1)c1ccc(CSc2nc3ccncc3n2Cc2ccccc2F)cc1 | -13%
CCSc1oc(-c2ccco2)nc1S(=O)(=O)c1ccc(Br)cc1 | -28%
Cc1ccc(C)c(NC(=O)Nc2csc3c2CCCC3)c1 | -0.1%
CCc1cccc(NC(=O)C2CCCN(c3ncnc4onc(-c5ccc(F)cc5)c34)C2)c1 (stereo unspecified) | u
COc1ccccc1OCC(=O)Nc1nnc2n1CCS2 | 0.3%
CCc1cccc(NC(=O)CN2C=NS(=O)(=O)c3ccccc32)c1 | 1.7%
COc1ccc(NC(=O)CSc2nnc(NC(=O)Nc3ccccc3)s2)cc1OC | 1.2%
COc1ccc(/C=C\c2nccc3c2[nH]c2ccccc23)cc1 | 3.7%
O=C(Nc1ccc2nc(SCC(=O)N3CCCc4ccccc43)sc2c1)c1ccc(Cl)cc1 | 10µM*
CCn1cc(C(=O)NCCc2ccccc2)c(=O)c2cc(S(=O)(=O)N3CCCCCC3)ccc21 | -14%
Cc1cnc2c(c1SCC(=O)NCc1ccc(F)cc1)c(=O)n(C)c(=O)n2C | -1.0%
O=C(NCc1cccc(F)c1)c1ccc(CN2CC(=O)N3CCCCC3C2=O)cc1 (stereo unspecified) | -4.2%
CC(=O)c1ccc(N2CCN(C(=O)CCC(=O)Nc3ccc4nc(N5CCCCC5)cc(C)c4c3)CC2)cc1 | 3.8%
Cc1ccc(CCNC(=O)C2CCN(S(=O)(=O)c3ccc4c(ccn4C)c3)CC2)cc1 | -28%
COc1ccc2c(c1)c(=O)c(S(=O)(=O)c1ccccc1)cn2CC(=O)Nc1ccc2c(c1)OCO2 | -8.8%
CCOc1ccc(CN2C(=O)c3ccccc3Sc3ccc(C(=O)N4CCN(C)CC4)cc32)cc1 | 0.3%
CC(C)(C)c1ccc(OCc2nc3ccccc3n2CCOc2ccccc2)cc1 | -4.1%
Fc1cccc(-c2nnn3c2nc(NCCc2ccccc2)c2ccccc23)c1 | -19%
O=c1c(NCc2ccccc2Cl)nccn1-c1ccccc1 | -3.9%
Cc1ccc2c(c1)c1c(c(=O)n(-c3cccc(Cl)c3)c(=O)n1CC(=O)NCCC1=CCCCC1)n2C | 3.9%
CC(C)(C)c1ccc(-c2nc3cc(NC(=O)c4cccc(Br)c4)ccc3o2)cc1 | -0.9%
CCCCn1cc(S(=O)(=O)c2ccc(Cl)cc2)c(=O)c2cc(F)c(N3CCCCC3)cc21 | -3.7%
CCc1cccc(NC(=O)CSc2nc3ccsc3c(=O)n2CC)c1 | -2.6%
CCOc1ccc(OCC(=O)Nc2nnc3n2CCS3)cc1 | -0.7%
COc1ccc(CCNC(=O)c2cc(=O)[nH]c3ccc(S(=O)(=O)N4CCCCC4C)cc23)cc1OC (stereo unspecified) | -6.9%
COC(=O)c1ccc2c(=O)n(CCCCCC(=O)N3CCN(c4ccc(Cl)cc4)CC3)c(=O)[nH]c2c1 | -0.6%
Cc1ccccc1Nc1sc(C(=O)c2ccccc2)c(N)c1S(C)(=O)=O | 0.3%
CC1CCCCN1CCCNC(=O)c1cc(Sc2cccc(Cl)c2)nc2ccccc12 (stereo unspecified) | -3.4%
CC1CCN(S(=O)(=O)c2ccc3c(c2)N(CC(=O)Nc2ccc(F)c(Cl)c2)C(=O)CO3)CC1 | 0.9%
Cc1ccc2c(c1)N(C(=O)N1CCC(C(=O)NCc3ccccc3C)CC1)CC(C)O2 (stereo unspecified) | -0.3%
Cc1ccc2oc(C(=O)N(Cc3sccc3C)C3CCS(=O)(=O)C3)c(C)c2c1 (stereo unspecified) | -7.8%
Cc1cccc(CN2CCN(CC(=O)Nc3c(C)cccc3C)S2(=O)=O)c1 | -1.4%
COc1cc(NC(=O)CC(C)n2nc(C)cc2C)cc(OC)c1 (stereo unspecified) | -0.1%
CC(C)N(C(=O)Cn1cc(S(=O)(=O)Cc2ccc(C(F)(F)F)cc2)c2ccccc21)C(C)C | -0.4%
COc1ccc(CCNC(=O)Cn2nnc(-c3cccc(C(F)(F)F)c3)n2)cc1OC | -0.2%
Cn1nnnc1SCCCNCc1cccc(OCc2ccccc2F)c1 | 0.2%
Cc1cc(C)c(NC(=O)c2cc(C)nc3c2c(C)nn3-c2cccc(F)c2)c(C)c1 | -15%
COc1ccc(NC(=O)c2nn(C)c3c2CSc2ccc(C)cc2-3)cc1OC | u
O=C(O)c1ccc2oc(=O)n(Cc3ccccc3)c2c1 | 0.3%

Later entries
structure | ClpP mod
Cc1ccc(S(=O)(=O)N2CCN(S(=O)(=O)c3ccc4c(c3)OCCCO4)CC2)cc1 | 1.2%
COc1cccc(Nc2nnc(-c3cc4ccc(O)cc4oc3=O)s2)c1 | -25%
COc1cccc(N2CCN(c3nc4ccc(C(=O)c5ccccc5)cc4n4c(C)nnc34)CC2)c1 | 0.4%
COc1cc(-c2noc(C)c2C#CCCN2C(=O)c3ccccc3C2=O)cc(OC)c1OC | 19%
CCc1ccccc1NC(=O)c1noc2c1CC(C(C)(C)C)CC2 (stereo unspecified) | -0.1%
Cc1c(Cl)cccc1-n1nc(C)c2c(C)cc(=O)n(CC(=O)N3CCCc4ccccc43)c21 | -29%
Cc1cccc(Nc2ncc(NC(=O)c3cccc(F)c3)c(Nc3cccc(C)c3)n2)c1 | -5.1%
CC1(C)OC(=O)C2(Cc3cc([N+](=O)[O-])ccc3N3CCCCC32)C(=O)O1 (stereo unspecified) | 2.8%
Cc1ccc2oc(-c3ccc(C)c(NC(=O)COc4ccc(Cl)cc4)c3)nc2c1 | 4.3%
CC(=O)N1CCCc2cc(S(=O)(=O)N3CCC(C(=O)NCc4cccc(C)c4)CC3)ccc21 | -0.7%
COCCNC(=O)Cn1cc2c(n1)-c1c(oc(C(=O)N3CCCC3)c1C)CC2 | 4.0%
CCn1cc2nc(SCC(=O)Nc3ccc(OC)cc3OC)n(Cc3ccc(Cl)cc3)c(=O)c2n1 | 0.8%

A second format for 4 compounds above.
SMILES: COc1cc(-c2noc(C)c2C#CCCN2C(=O)c3ccccc3C2=O)cc(OC)c1OC
  ClpP mod = 19%
SMILES: Cc1cccc(Nc2ncc(NC(=O)c3cccc(F)c3)c(Nc3cccc(C)c3)n2)c1
  ClpP mod = -5.1%
SMILES: CC(=O)N1CCCc2cc(S(=O)(=O)N3CCC(C(=O)NCc4cccc(C)c4)CC3)ccc21
  ClpP mod = -0.7%
SMILES: COc1cccc(Nc2nnc(-c3cc4ccc(O)cc4oc3=O)s2)c1
  ClpP mod = -25%

(listing goes on)
structure | ClpP mod
CCC1CCCCN1C(=O)CSc1nnc(-c2ccc(OC)c(OC)c2)o1 (stereo unspecified) | -11%
Cc1ccccc1CNC(=O)CN1CCSc2ccccc21 | -2.5%
COC(=O)CN1C(=O)CSc2ccc(S(=O)(=O)Nc3ccc(Cl)cc3C)cc21 | 0.5%
CCC(C)n1c(=O)c2sccc2n2c(CCCC(=O)N3CCN(c4ccccc4)CC3)nnc12 (stereo unspecified) | 0.0%
O=C(Nc1ccc(C(F)(F)F)cc1)C1CCCN(c2cnccn2)C1 (stereo unspecified) | u
Cc1ccc(OCC(=O)Nc2ccc3c(c2)nc(CCNC(=O)c2ccco2)n3C)cc1 | 0.1%
O=C(c1cccs1)c1cn(CCOc2ccc(F)cc2)c2ccccc12 | -16%
COc1cccc(C(=O)c2cn(CC(=O)NCc3ccccc3)c3nc(C)ccc3c2=O)c1 | -7.7%
Cc1ccc(C)c(Cn2c3ccccc3c3cnn(CC(=O)NCCCc4ccccc4)c(=O)c32)c1 | -14%
COc1cc(OC)cc(-c2nnc(SCC(=O)c3ccc([N+](=O)[O-])cc3)o2)c1 | -1.2%
O=C(c1ccc(F)cc1)N1c2nc(-c3ccco3)nn2C2(CCCCC2)[C@@H]2CCCC[C@@H]21 | -0.8%
CC1=C(C(=O)Nc2ccc(C)cc2C)C(c2ccc([N+](=O)[O-])cc2)n2ncc(C(=O)Nc3ccc(F)cc3)c2N1 (stereo unspecified) | 2.3%
CCOc1ccccc1C(=O)N(Cc1ccc(N(C)C)cc1)Cc1ccco1 | -3.7%
CCn1c(=O)c2cc(C(=O)N3CCN(c4cccc(OC)c4)CC3)sc2c2ccccc21 | 2.0%
CCOc1ccc(NC(=O)C(CC(C)C)N2Cc3ccccc3C2=O)cc1 (stereo unspecified) | 0.3%
CCOc1ccc(-c2ccc(NS(=O)(=O)c3cc(C)c(C)cc3C)cc2)nn1 | 3.9%
Cc1cc(C(=O)NCc2ccc(Cl)cc2)c2c(C)nn(-c3ccccc3)c2n1 | -4.8%
COc1ccc(CCNC(=O)c2ccc3nc(CCc4ccccc4)oc3c2)cc1OC | -3.6%
CC1=C(C(=O)Nc2ccccc2C)C(c2sccc2C)n2ncnc2N1 (stereo unspecified) | -1.6%
O=C(c1ccco1)N(Cc1cccnc1)c1nc2c(F)cccc2s1 | -6.2%
CCOC(=O)Cc1cc(C(=O)Nc2ccc(Br)cc2)sc1-c1ccc(C)cc1 | 22µM*
Cc1ccc(NC(=O)c2nc(S(C)(=O)=O)ncc2N(Cc2ccco2)Cc2ccco2)cc1 | -1.9%

A portion of the library; the hit share may differ from the screen's.
